Bioassay records from PubChem.
rRNA inh HTS = reduced GFP signal of wild-type E. coli, primary screen, bacterial rRNA inhibitor project, GFP/RFP fluorescence, OD600, single point. E. coli WT GFP vs humanized-ribosome RFP mutants, 24 h; stronger effect = lower value; DMSO median 0, no signal -100. GFP signal change (wild-type ribosome), % (concentration not given with the values). hit rate 1.6% among 350,000. AID 720706, 2013;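 active = significant combined selectivity score with lowered wild-type GFP, culture density cut under 30%, mutant RFP and density less affected; inactive = any of these conditions unmet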; note: one replicate is shown; some compounds called inactive have numbers as strong as hits
rRNA inh HTS OD600 = also measured in rRNA inh HTS; calls as there; OD600 change, %; measured here: OD600 growth;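 optical density of the mix in the first replicate; 0 = DMSO median and -100 = no signal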
rRNA inh HTS RFP = recorded beside rRNA inh HTS, whose call it bears; RFP signal change, %; measured here: RFP humanized mutant strains;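 first replicate; 0 = DMSO median and -100 = no signal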
* marks the source's active call; other numbers are inactive results. This is a subset; rates above refer to the full screens.

SMILES	rRNA inh HTS	rRNA inh HTS OD600	rRNA inh HTS RFP
CCS(=O)(=O)NCC[C@H]1CC[C@H](NC(=O)Nc2cc(Cl)cc(Cl)c2)[C@@H](CO)O1	-8.6	-12.1	1.1
COc1ccc(CN(C)C[C@@H]2Oc3ccc(NC(=O)Nc4ccc(OC)cc4)cc3C(=O)N([C@H](C)CO)C[C@@H]2C)cc1	1.0	4.5	0.1
C[C@@H]1CN([C@@H](C)CO)C(=O)c2cc(C3=CCCCC3)cnc2O[C@H]1CN(C)Cc1ccccc1	0.4	15.8	4.2
CO[C@H]1CN(C)C(=O)c2ccc(NC(=O)Cc3ccccc3)cc2OC[C@@H](C)N(C)C[C@@H]1C	1.4	5.3	-1.1
C/C=C/c1cnc2c(c1)C(=O)N([C@@H](C)CO)C[C@H](C)[C@H](CN(C)C(=O)Nc1ccccc1F)O2	2.5	12.4	-1.1
O=C(Nc1ccccc1)N1CCCCN2[C@H](CO)[C@H](c3ccc(-c4ccccc4F)cc3)[C@@H]2C1	-14.2	-54.7	10.7
COc1ccc2c3c(n(C)c2c1)[C@H](CO)N(Cc1ccccc1)CC31CCN(CC2CC2)CC1	4.0	5.0	2.3
CN1C(=O)c2cc(NC(=O)c3ccc(Cl)cc3)ccc2OC[C@@H]2O[C@@H](CC(=O)NCc3cccc(F)c3)CC[C@@H]21	-7.1	-8.8	-1.6
CN1C(=O)c2cc(NC(=O)c3ccc(C(F)(F)F)cc3)ccc2OC[C@H]2O[C@@H](CC(=O)NCc3ccc4c(c3)OCO4)CC[C@H]21	-6.9	-18.1	0.7
CCC(=O)N1CCC2(CC1)CN(C(=O)NC1CCCC1)[C@H](CO)c1c2c2ccc(OC)cc2n1C	-1.3	-3.1	0.5
O=C(C[C@@H]1CC[C@@H]2[C@H](COC[C@@H](O)CN2S(=O)(=O)c2ccccc2)O1)NCCN1CCCC1	3.4	10.6	-2.5
C[C@H]1CN([C@@H](C)CO)C(=O)c2cccc(NS(=O)(=O)c3ccccc3)c2O[C@@H]1CN(C)C(=O)Nc1ccc2c(c1)OCO2	1.0	-2.2	-0.2
COc1ccc(NC(=O)Nc2ccc3c(c2)CC(=O)N([C@@H](C)CO)C[C@H](C)[C@H](CN(C)Cc2ccncc2)O3)cc1	-1.8	2.2	1.2
CCOC(=O)[C@@H]1CSCCS(=O)(=O)N1C(=O)[C@H](CCSC)NC(=O)OC(C)(C)C	-5.7	-7.6	2.9
CCCC(=O)N1CC2(C1)CN(C(=O)Nc1cccc(F)c1)[C@H](CO)c1c2c2ccc(OC)cc2n1C	0.6	-16.4	-1.8
CCCNC(=O)C[C@H]1CC[C@@H]2[C@H](COc3ccc(NC(=O)Nc4cccc(C)c4)cc3C(=O)N2C)O1	-0.3	3.4	2.9
O=C(C[C@H]1CC[C@@H](NC(=O)Nc2ccc3c(c2)OCO3)[C@@H](CO)O1)NCCCN1CCOCC1	5.3	1.5	0.2
COc1cccc(NC(=O)Nc2ccc3c(c2)C(=O)N(C)C[C@@H](OC)[C@@H](C)CN(CC2CC2)[C@H](C)CO3)c1	1.0	8.3	4.0
C[C@H]1CN([C@@H](C)CO)C(=O)c2cccc(NC(=O)C3CCOCC3)c2O[C@@H]1CN(C)Cc1ccc2c(c1)OCO2	-3.1	-0.3	-0.4
CCCCN(C)c1c(C)nc2ccc(C(=O)NCCCn3ccnc3)cn12	6.8	5.3	1.4
Cc1ccc(S(=O)(=O)N(C)C[C@@H]2Oc3ncc(C#Cc4cccc(F)c4)cc3C(=O)N([C@H](C)CO)C[C@@H]2C)cc1	0.7	2.5	0.0
COc1ccc(CN(C)C[C@@H]2OCCCC[C@H](C)Oc3ccc(NS(=O)(=O)c4ccc(C)cc4)cc3C(=O)N([C@@H](C)CO)C[C@@H]2C)cc1	-1.0	-0.5	10.8
C[C@H](CO)N1C[C@H](C)[C@H](CN(C)C(=O)Nc2ccc3c(c2)OCO3)OCCCC[C@H](C)Oc2ccc(NS(=O)(=O)c3ccc(Cl)cc3)cc2C1=O	-0.5	-3.1	-1.2
Cn1cnc(CCNC(=O)C[C@@H]2CC[C@H]3[C@@H](COC[C@@H](O)CN3C(=O)Nc3ccc(Cl)cc3)O2)c1	-23.1	-23.2	-3.0
CN(C)C(=O)[C@@H]1[C@@H](CO)[C@@H]2Cn3c(ccc(C4=CCCC4)c3=O)[C@H]1N2Cc1ccccn1	1.4	5.0	-4.3
Next part.
SMILES	rRNA inh HTS	rRNA inh HTS OD600	rRNA inh HTS RFP
CO[C@H]1CN(C)C(=O)c2ccc(NC(=O)C3CCC3)cc2OC[C@@H](C)NC[C@@H]1C	-0.2	7.0	1.5
O=C(OCc1cn([C@@H]2C[C@H](c3ccc(Cl)cc3)N(C(=O)c3cccs3)C[C@H]2O)nn1)c1ccccc1	-11.4	-1.1	3.3
CC1CCCCC12NC(=O)N(CC(=O)N1CCN(S(=O)(=O)c3ccc(Cl)s3)CC1)C2=O (stereo unspecified)	1.2	0.5	6.2
C[C@@H]1CN([C@H](C)CO)C(=O)c2cc(NC(=O)NC3CCCCC3)ccc2O[C@@H](C)CCCCO[C@H]1CN(C)C(=O)Nc1ccc(C(F)(F)F)cc1	0.3	14.7	-4.5
COc1ccc(CCCNC(=O)C2(C)Cc3c(-c4ccc(NC(C)=O)cc4)ccnc3O2)cc1 (stereo unspecified)	-28.5	-31.8	-0.8
C[C@H](CO)N1C[C@H](C)[C@H](CN(C)Cc2ccc(C(=O)Nc3ccccc3N)cc2)OCCCC[C@H](C)Oc2ccc(NC(=O)C3CCCCC3)cc2C1=O	-0.8	-4.5	3.0
COc1cccc(S(=O)(=O)Nc2ccc3c(c2)[C@@H]2C[C@@H](CC(=O)N4CCCCC4)O[C@@H](CO)[C@@H]2O3)c1	-1.6	8.9	0.2
CCNC(=O)C[C@@H]1CC[C@@H]2[C@H](COc3ccc(NC(=O)Nc4cccc(C)c4)cc3C(=O)N2C)O1	0.7	-5.8	-1.1
Cc1ccc(S(=O)(=O)N(C)C[C@@H]2OCCCC[C@H](C)Oc3ccc(NC(=O)NC4CCCCC4)cc3C(=O)N([C@@H](C)CO)C[C@@H]2C)cc1	2.0	12.2	-0.5
C[C@@H]1CN([C@@H](C)CO)C(=O)c2cc(NS(=O)(=O)c3ccc(F)cc3)ccc2O[C@H]1CN(C)Cc1ccc(C(=O)O)cc1	2.5	8.7	-1.8
C[C@@H]1CN([C@H](C)CO)C(=O)Cc2cc(NC(=O)C3CCCCC3)ccc2O[C@@H]1CN(C)Cc1ccc(Oc2ccccc2)cc1	-0.1	-13.4	1.8
CN1C(=O)c2cc(NC(=O)Nc3ccccc3)ccc2OC[C@@H]2O[C@@H](CC(=O)O)CC[C@H]21	0.7	0.2	-2.0
OC[C@@H]1[C@H](c2ccc(-c3cccc(F)c3)cc2)[C@H]2CN(Cc3cncnc3)CCCCN12	0.4	1.5	0.7
CC(C)C#Cc1ccc([C@H]2[C@@H](CO)N3CCCCN(C(=O)c4ccc(F)cc4)C[C@H]23)cc1	-60.2	-80.7	-15.1
C[C@H](CO)N1C[C@H](C)[C@H](CN(C)S(=O)(=O)c2ccccc2)Oc2ccc(N(C)C)cc2C1=O	1.8	0.0	2.8
O=C(C[C@@H]1C=C[C@@H](NC(=O)Nc2ccccc2F)[C@@H](CO)O1)NCc1ccc(-c2ccccc2)cc1	1.3	28.4	1.7
C/C=C/c1ccccc1[C@@H]1[C@H](C#N)N(C(=O)Cc2ccccn2)[C@H]1CO	0.4	0.5	1.0
Cc1cc(C(=O)NNC(C)Cc2ccccc2)no1 (stereo unspecified)	7.1	3.2	1.4
CC(=O)c1ccc(-c2cnc3c(NC=O)cc(-c4ccc(N5CCN(C)CC5)cc4)cn23)cc1	-2.6	-0.4	1.8
N#C[C@@H]1[C@@H](c2ccc(C#Cc3cccc(F)c3)cc2)[C@H](CO)N1C(=O)C1CCC1	-6.2	-2.4	0.0
C[C@H]1CN([C@@H](C)CO)C(=O)c2cc(-c3cncnc3)cnc2O[C@@H]1CN(C)C(=O)Cc1ccccn1	4.3	15.1	-1.1
O=C([C@@H]1[C@@H](CO)[C@@H]2Cn3c(ccc(-c4ccncc4)c3=O)[C@H]1N2Cc1ccccc1)N1CCOCC1	-1.6	4.5	-1.5
CC[C@H](NC(=O)CC[C@H]1O[C@@H](n2cnc3c(NC(=O)c4ccccc4)ncnc32)[C@H](O)[C@@H]1O)c1ccccc1	9.9	8.9	1.1
CCC(=O)N(C)C[C@H]1Oc2ncc(/C=C/c3ccccc3)cc2C(=O)N([C@@H](C)CO)C[C@@H]1C	-4.1	5.5	3.3
Cc1noc(C)c1NC(=O)Nc1cccc2c1O[C@H](CN(C)Cc1ccc(C(=O)O)cc1)[C@@H](C)CN([C@@H](C)CO)C2=O	3.7	10.4	-3.2

Results in rRNA inh HTS RFP and rRNA inh HTS OD600 (three entries from above):
compound | rRNA inh HTS RFP | rRNA inh HTS OD600
COc1cccc(S(=O)(=O)Nc2ccc3c(c2)[C@@H]2C[C@@H](CC(=O)N4CCCCC4)O[C@@H](CO)[C@@H]2O3)c1 | 0.2 | 8.9
CCC(=O)N(C)C[C@H]1Oc2ncc(/C=C/c3ccccc3)cc2C(=O)N([C@@H](C)CO)C[C@@H]1C | 3.3 | 5.5
CN1C(=O)c2cc(NC(=O)Nc3ccccc3)ccc2OC[C@@H]2O[C@@H](CC(=O)O)CC[C@H]21 | -2.0 | 0.2

Remaining list, next part:
SMILES	rRNA inh HTS	rRNA inh HTS OD600	rRNA inh HTS RFP
Cc1ccc(S(=O)(=O)Nc2ccc3c(c2)CC(=O)N([C@H](C)CO)C[C@@H](C)[C@@H](CN(C)Cc2ccc(C(=O)Nc4ccccc4N)cc2)O3)cc1	-4.2	-8.4	1.2
O=C(C[C@@H]1CC[C@H]2[C@@H](COC[C@@H](O)CN2C(=O)Nc2ccc3c(c2)OCO3)O1)N1CCN(c2ccccc2)CC1	3.9	0.2	-5.2
COc1ccc(C#Cc2cccc(-c3nc(C(=O)NCc4ccc(Oc5ccccc5)cc4)cc4c3[C@@H](CCO)N(S(=O)C(C)(C)C)C4)c2)cc1OC (stereo partly specified)	4.8	30.5	45.2
C[C@@H]1CCCCO[C@H](CN(C)C(=O)CCC(F)(F)F)[C@H](C)CN([C@H](C)CO)C(=O)c2cc(NS(=O)(=O)c3ccc(Cl)cc3)ccc2O1	-0.9	-10.2	-0.4
C[C@@H]1CN([C@H](C)CO)S(=O)(=O)c2ccc(C#Cc3ccccn3)cc2O[C@@H]1CN(C)Cc1ccccc1	-6.6	-18.6	-0.2
CCN1[C@@H]2c3ccc(-c4ccccc4OC)c(=O)n3C[C@@H]2[C@@H](CO)[C@@H]1C(=O)NCCCN(C)C	4.2	3.3	-2.4
COc1ccc(NC(=O)N(C)[C@H]2C[C@H]3c4[nH]c5ccc(-c6ccc(OC)cc6)cc5c4CCN3C[C@H]2[C@H](C)O)cc1	-4.1	-1.1	1.5
COc1ccc(S(=O)(=O)Nc2ccc3c(c2)C(=O)N([C@H](C)CO)C[C@@H](C)[C@@H](CN(C)C)OCCCC[C@@H](C)O3)cc1	-0.5	0.7	-1.6
COc1ccccc1NC(=O)N1CCCCN2[C@H](CO)[C@H](c3ccc(-c4cccc(C#N)c4)cc3)[C@@H]2C1	0.9	7.6	8.7
CCC(=O)Nc1ccc2c(c1)C(=O)N(C)C[C@@H](OC)[C@H](C)CN(Cc1cc(-c3ccccc3)on1)[C@H](C)CO2	-6.0	-8.2	5.1
C/C=C/c1cnc2c(c1)C(=O)N([C@@H](C)CO)C[C@@H](C)[C@H](CN(C)C(=O)C1CCCCC1)O2	2.8	21.4	-5.2
O=C(NCC[C@@H]1CC[C@H](NS(=O)(=O)c2ccc(F)cc2)[C@H](CO)O1)c1ccc2c(c1)OCO2	0.2	-2.1	-0.2
CC(C)C#Cc1cnc2c(c1)C(=O)N([C@H](C)CO)C[C@H](C)[C@@H](CN(C)C(=O)c1ccccc1)O2	0.5	19.8	0.4
COc1ccc(-c2cnc3c(c2)C(=O)N([C@@H](C)CO)C[C@@H](C)[C@@H](CN(C)C(=O)NC2CCCC2)O3)cc1	-4.5	-0.6	-0.5
CCN(CC)C(=O)c1cccc(-c2csc(C(C)(O)c3ccc(OC)cc3)n2)c1 (stereo unspecified)	2.5	-6.8	7.9
COc1cccc(-c2ccc([C@@H]3[C@@H](CO)N4C(=O)CN(C(=O)NC(C)C)C[C@H]34)cc2)c1	2.9	11.3	-3.4
COc1ccccc1NC(=O)N1CC(=O)N2[C@H](CO)[C@H](c3ccc(C#Cc4ccc(F)cc4)cc3)[C@H]2C1	-7.9	-47.7	23.6
O=C(Nc1ccc(F)cc1)C(c1ccccc1OC(F)(F)F)N1CCN(c2cccc(C(F)(F)F)n2)CC1 (stereo unspecified)	7.2	4.5	1.3
COCC(=O)N1[C@@H](CO)[C@@H](c2ccccc2)C12CN(C(=O)c1cccc(F)c1)C2	2.0	10.8	-5.8
CCCCN(C(C)=O)c1c(CC)nc2ccc(C(=O)Nc3cccc(OCC(=O)N(C)C)c3)cn12	1.0	5.2	-2.9
CCC(=O)Nc1ccc2c(c1)OC[C@@H](C)N(C(=O)Cc1ccccn1)C[C@@H](C)[C@@H](OC)CN(C)C2=O	3.0	1.1	0.5
Cc1ccc(-c2cnc3c(c2)C(=O)N([C@@H](C)CO)C[C@H](C)[C@H](CN(C)CC2CCOCC2)O3)cc1	0.7	15.7	-0.8
CS(=O)(=O)N1[C@@H](CO)[C@@H](c2ccccc2)C12CN(Cc1cc(F)ccc1F)C2	-7.3	2.2	2.0
